Source: PubChem BioAssay (National Center for Advancing Translational Sciences (NCATS))
Menin MLL FP FL: displaces fluorescein MLL peptide from human menin. Fluorescence polarization, fluorescein-MLL peptide displacement from menin. 290,000 tested, under 10 active. FP activity change, % at 61.4 µM; inconclusive = falling polarisation curve, or a change in total fluorescence; inactive = total fluorescence flat and polarisation flat or rising; no compound was filed as active; the % refers to the polarisation; negative = inhibition;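 also: % of control where 0% means no effect; inhibitors lower the polarisation; unlabelled MLL peptide was the positive control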
CtBP-E1A inh: CtBP/E1A binding inhibition | AID 651724 | activity change, % (no concentration beside the values) | AlphaScreen GST-E1A/His-CtBP binding, 1536-well; active compounds read low; control for the full effect not named in the record | 340,000 tested, 0.49% active; in the data active means activity change below about -65%; inconclusive means about -30% to -65%; inactive means above about -30%; also: % is scaled to controls: 0 for no effect and ±100 for the full control effect
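Steps: dispense buffer (Tris pH 8.0, NaCl 300 mM, TCEP 1 mM, BSA, Tween 20); add 5X protein mix (GST-E1A, His-CtBP, 125 nM each); pin 23 nL compound; 2 h at 37 °C, dark; add 5X beads (50 ug/mL); 1 h; read.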
gsp agonist: activates gsp, the McCune-Albright syndrome mutation; AID 624287; Potency, µM (doses to about 76.9 µM), for inactives: at the highest dose activation (cAMP increase), most hits filed as activators; gsp mutant cells, cAMP HTRF, 30 min; control for the full effect not named in the record; 340,000 tested, 0.13% active; active = well fitted activation curve with a large enough effect; inconclusive = small, poorly fitted or top-dose-only effect, or another doubt; inactive = no such curve, though single readings can be large or run the other way; cell line not stated here;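 also: phosphodiesterase inhibitor Ro 20-1724 added with compounds to block cAMP breakdown; potency is read from the fitted curve at half-maximal effect; nearly all actives have a fitted effect of over 60% in size; about a fifth of the inactives were tested at one dose only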
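Cells in DMEM/10% FBS with G418 were pretreated with compounds in DMSO plus […] (300 uM stock) for 30 min at 37C. cAMP was measured by HTRF (cAMP-d2 plus anti-cAMP antibody-K) after 30 min at room temperature.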
TRPV1 PAM: potentiators of human vanilloid receptor 1 (TRPV1); TRPV1-expressing cells, Fluo-8 calcium influx, capsaicin EC20 potentiation; host cell line not named in the record; control for the full effect not named in the record; potentiation, % at 8.33 µM; 320,000 tested, 0.02% active; AID 540277; active means potentiation above 80%; inconclusive means 30% to 80%; inactive means below 30%; also: 0% is about no effect
Target sequence (Q8NER1 whole entry, looked up): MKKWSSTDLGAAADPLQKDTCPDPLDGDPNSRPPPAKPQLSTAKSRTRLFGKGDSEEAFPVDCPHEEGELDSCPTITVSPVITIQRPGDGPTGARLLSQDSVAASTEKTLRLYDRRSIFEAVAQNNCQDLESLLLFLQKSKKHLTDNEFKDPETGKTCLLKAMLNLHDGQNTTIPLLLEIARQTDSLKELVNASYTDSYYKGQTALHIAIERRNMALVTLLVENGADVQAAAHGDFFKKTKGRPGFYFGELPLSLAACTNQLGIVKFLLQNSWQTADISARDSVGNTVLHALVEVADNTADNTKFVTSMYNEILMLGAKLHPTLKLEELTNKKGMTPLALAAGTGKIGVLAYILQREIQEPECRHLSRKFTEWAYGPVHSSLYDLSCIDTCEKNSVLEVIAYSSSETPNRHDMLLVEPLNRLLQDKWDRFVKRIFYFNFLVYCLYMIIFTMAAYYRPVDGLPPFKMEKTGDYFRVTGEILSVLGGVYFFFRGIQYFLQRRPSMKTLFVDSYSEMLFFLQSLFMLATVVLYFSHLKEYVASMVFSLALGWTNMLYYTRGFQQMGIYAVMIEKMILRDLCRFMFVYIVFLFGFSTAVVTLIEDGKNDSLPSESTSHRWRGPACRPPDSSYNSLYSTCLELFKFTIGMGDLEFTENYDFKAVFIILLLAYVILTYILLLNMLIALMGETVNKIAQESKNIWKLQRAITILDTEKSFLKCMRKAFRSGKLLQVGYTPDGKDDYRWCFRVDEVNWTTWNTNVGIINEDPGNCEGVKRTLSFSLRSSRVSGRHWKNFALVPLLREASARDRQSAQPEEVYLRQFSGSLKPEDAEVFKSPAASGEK
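Fluo-8 calcium influx in TRPV1-expressing cells, kinetic read (ex 480/em 520 nm). Compound added and read 3 min for agonist activity, followed by capsaicin at EC20 final and 2 min further read for enhancement.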
ClpP mod: qHTS Assay for Activators of ClpP; ATP-dependent Clp protease proteolytic subunit (Bacillus subtilis (strain 168)), P80244; purified B. subtilis ClpP, FRET peptide cleavage, 20 min; Potency, µM (top dose mostly 57.5 µM), inactives show top-dose activity change, negative = active; 340,000 tested, 1.9% active; AID 651965, 2013; active = well fitted falling curve with a large enough effect; inconclusive = small, poorly fitted or top-dose-only effect; inactive = no such curve, though single readings can be large or run the other way; also: potency is read from the fitted curve at half-maximal effect; the source files actives as falling curves though it sought activators and does not explain the sign; nearly all actives have a fitted effect of over 65% in size; many hits overshoot -100%
Target sequence (P80244 whole entry, looked up): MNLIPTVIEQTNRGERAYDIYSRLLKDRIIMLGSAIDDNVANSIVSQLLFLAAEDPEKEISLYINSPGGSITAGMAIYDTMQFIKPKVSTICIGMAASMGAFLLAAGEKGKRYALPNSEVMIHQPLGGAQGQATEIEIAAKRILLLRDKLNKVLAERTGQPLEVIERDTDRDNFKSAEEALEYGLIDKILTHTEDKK
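FRET quenching reversal measured ClpP activation: 10 microg/mL B. subtilis ClpP at pH 8 with the FRET-FV decapeptide, read at 430 nm after 320 nm excitation. The 20-min minus 0-min signal was scaled between DMSO/no-enzyme wells and ADEP (5.8 microM final).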
Sfp inh: blocks B. subtilis Sfp PPTase activity | Q9F4F7 | 310,000 tested, 3.5% active | Biochemical Sfp PPTase activity, qHTS | Potency, µM, for inactives: max response, negative = inhibition, most hits filed as inhibitors; active = well fitted inhibition curve with a large enough effect; inconclusive = small, poorly fitted or top-dose-only effect, or another doubt; inactive = no such curve, though single readings can be large or run the other way;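 also: the enzyme is Sfp with the accession as filed and its product quenches rhodamine fluorescence; potency is read from the fitted curve at half-maximal effect; 0% = enzyme reaction without inhibitor and -100% = no enzyme wells; top concentration of the series not given in the record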
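Sfp 15 nM + cpd, 15 min RT; start w/ rhodamine-CoA 5 uM, BHQ-2-YbbR 12.5 uM (final); 50 mM Hepes pH 7.6, 10 mM MgCl2, 0.01% NP-40, 0.01% BSA; read 525/598 nm at 0 and 30 min.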
gsp antag: antagonists of gsp mutant (McCune-Albright syndrome). gsp-mutant cells, cAMP HTRF, 30 min; control for the full effect not named in the record. Potency, µM (highest dose often 76.9 µM), for the others: at the highest dose activity change, negative = inhibition, usual class: inhibitors. 340,000 tested, 0.4% active. AID 624288; active = falling curve of any shape with a large fitted effect; inconclusive = falling curve, mostly with a smaller effect; inactive = flat or rising curve; cell line not stated here;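 also: intracellular cAMP measured with PDE inhibitor Ro 20-1724 present during compound exposure; potency is read from the fitted curve at half-maximal effect; % is scaled to controls: 0 for no effect and ±100 for the full control effect; nearly all actives have a fitted effect of over 65% in size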
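Measurement of cellular cAMP by homogeneous time-resolved fluorescence following a 30 min compound exposure at 37C. The PDE inhibitor […] was present throughout; the assay buffer was DPBS with 0.05% BSA and 0.005% Tween 20.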
Active calls of the source: *; ? = inconclusive; · = not tested or not shown; & = joins results of further samples; [ ] = remark or other dose.

Every second line gives: Menin MLL FP FL	CtBP-E1A inh	gsp agonist	TRPV1 PAM	ClpP mod	Sfp inh	gsp antag
[1] COc1ccc(C2=CC(=O)C[C@H](c3ccc(F)cc3)C2)cc1OC
→ ·	·	-6%	-8	-6.4%	·	3%
[2] COCCCn1c(=O)c2ccccc2n(Cc2cc(C(=O)OC)ccc2OC)c1=O
→ -3.2	-1	21%	-10	-17%	-1%	-11%
[3] CC1CCCN(C(=O)c2ccc(OC3CCN(CCc4ccccc4)CC3)cc2)C1 (configuration not stated)
→ ·	·	28%	4	-2.0%	8%	-8%
[4] Cc1nccc2oc(=O)c(NC(=O)c3ccc(Cl)cc3)cc12
→ -0.9	26	1%	-16	·	7%	3%
[5] CSCC[C@H](NC(=O)N1CCn2c1nc1ccccc12)C(=O)NCC1CCCO1 (some centres not stated)
→ ·	-7	10%	8	-1.1%	-3%	9%
[6] CC12CCC(C(=O)N(CSC(=S)N/N=C\c3ccccc3)C1=O)C2(C)C (configuration not stated)
→ -0.3	-1	7%	?	-0.3%	29%	4%
[7] Cc1oc(S(=O)(=O)N2CCCCC2)cc1NC(=O)Nc1ccc(Cl)cc1
→ 17	·	18%	-1	-0.5%	25%	-12%
[8] O=C(Cn1nnc2c(cnn2-c2ccc(F)cc2)c1=O)Nc1ccccc1C(F)(F)F
→ 0.1	·	?	3	4.5%	3%	7%
[9] CCN(CC)CCN(Cc1cc2cc3c(cc2[nH]c1=O)OCO3)C(=S)NCCCOC
→ -5.0	·	-28%	4	4.6%	3%	-1%
[10] c1ccc2c3c([nH]c2c1)-c1[nH]ncc1CC3
→ 0.3	-20	0%	25	13µM*	3%	?
[11] O=C(/C=C/c1ccc2c(c1)OCO2)c1cccnc1
→ -7.6	-25	25%	0	-3.3%	2%	2%
[12] O=C(NCCS(=O)(=O)N1CCN(c2ccccc2)CC1)c1cc(=O)c2ccccc2o1
→ ·	-9	-23%	·	-5.7%	·	·
[13] CCOC(=O)C1CCN(C(=O)COc2ccc(Cl)cc2Cl)CC1
→ -4.9	5	36%	3	-0.7%	13%	-3%
[14] C[C@H]1CN([C@@H](C)CO)C(=O)c2cc(C#Cc3ccccn3)cnc2O[C@@H]1CN(C)Cc1ccccc1
→ ·	4	-61%[inhibitor]	·	-4.6%	·	·
[15] CCn1c(SCC(=O)NC2CC2)nnc1-c1ccc(C)cc1
→ -1.7	-1	9%	-2	0.6%	7%	7%
[16] Cc1ccc(S(=O)(=O)N2CCN(C(=O)CCCN3C(=O)NC4(CCCC4)C3=O)CC2)cc1C
→ ·	-13	-1%	19	-0.7%	·	11%
[17] COc1ccc(NC(=O)c2cccc(C#N)c2)cc1NS(=O)(=O)c1ccc(F)cc1
→ 5.9	9	-69%[inhibitor]	10	-24%	-7%	4%
[18] CC(C)n1nnnc1SCC(=O)NCc1cccs1
→ -1.8	-1	-54%[inhibitor]	-5	-0.4%	?	3%
[19] CCN(CC)CCn1c(=N)n(CC(=O)c2ccc(C)cc2)c2ccccc21
→ -3.1	-7	-20%	7	-11%	6%	-4%
[20] O=C1CC(SCc2nc3ccccc3[nH]2)C(=O)N1c1ccc(F)cc1 (configuration not stated)
→ 13	-6	10%	-7	3.4%	-22%	-8%
[21] COC(=O)[C@@]1(C)[C@H]2C(=O)N(Cc3ccccc3)C(=O)[C@H]2[C@H]2CN=C(SCc3ccccc3)N21
→ ·	-8	·	·	2.3%	·	-6%
[22] O=C1NCCN1CCN1C(=O)c2ccccc2NC1c1ccccc1 (configuration not stated)
→ 3.3	-23	-4%[15.4 µM]	7	-1.5%	9%	4%
[23] CC(C)CN1CCC(CN2CCNC(=O)C2=O)CC1
→ ·	4	·	·	-0.8%	·	6%
[24] Cc1onc(-c2ccccc2)c1C(=O)N/N=C/c1cccs1
→ 0.4	·	1%	7	-0.7%	12%	-2%
[25] CCOc1ccc(Cl)cc1CSc1n[nH]c(C)n1
→ -2.2	·	-4%[15.4 µM]	2	·	-1%	6%
[26] Cc1cc(C)n2nc(N)c(N=Nc3ccccc3)c2n1
→ -1.0	-8	1%	-1	·	22%	-1%
[27] CCCCn1c(N)c(N(CCOC)C(=O)c2ccc(C)o2)c(=O)[nH]c1=O
→ ·	7	12%	12	0.6%	·	19%
[28] O=C(CCN1C(=O)c2ccccc2C1=O)NCc1ccccc1
→ 0.6	·	-42%[inhibitor]	2	-1.6%	20%	-5%
[29] Cc1ccc(C(C(=O)NCc2ccccc2)N(Cc2ccco2)C(=O)c2snc(C(N)=O)c2N)o1 (configuration not stated)
→ 3.3	-3	-3%	4	·	-7%	-20%
[30] CCOc1ccc(S(=O)(=O)Nc2ccc(C(=O)N3CCCC3)cc2)cc1
→ -1.4	1	?	6	-1.4%	10%	1%
[31] COc1ccccc1-n1ccnc(SCC(=O)NC2CCCC2)c1=O
→ ·	0	6%[15.4 µM]	2	·	·	8%
[32] N/C(=N\c1nc2ccccc2o1)NC(=O)c1ccc([N+](=O)[O-])cc1
→ 0.0	8	-8%	-12	·	-7%	3%
[33] CCOc1ccc(CNC(=O)C(C)n2ccc3cc(S(=O)(=O)N4CCCC4)ccc32)cc1 (configuration not stated)
→ ·	·	8%	-4	-2.8%	4%	-13%
[34] O=C(CCCn1c(=O)oc2ccccc21)Nc1ccccc1
→ ·	1	-15%[15.4 µM]	-13	·	·	7%
[35] Clc1nc(N2CCOCC2)ncc1Br
→ -1.7	6	-1%[15.4 µM]	3	0.3%	30%	21%
[36] Cc1nn(C)cc1CNC(=O)Nc1ccc(Br)cc1Cl
→ -5.1	2	?	11	-0.4%	2%	-1%
[37] COc1cc(C(=O)Nc2scc(-c3ccc(C)cc3)c2C(=O)O)cc(OC)c1OC
→ 1.6	-8	27%	?	-8.7%	35%[activator]	-32%
[38] Cc1ccc(N2C=Nc3ccc(C)c4nc(C)cc2c34)cc1
→ -25	17	12%	-11	22µM*	-12%	-6%
[39] O=C1C2CCCN2C(c2ccccc2F)N1c1cccc(Cl)c1 (configuration not stated)
→ 1.7	2	?	·	3.4%	-3%	4%
[40] NC(=O)c1ccc[n+](CC(=O)c2ccc(F)cc2)c1
→ -0.7	-3	0%[15.4 µM]	-4	-0.1%	31%[activator]	-9%
[41] COC(=O)[C@@]1(Cc2ccc(OC)cc2)[C@H]2c3cc(C(=O)N4CCCC4)n(CCn4cc([N+](=O)[O-])nc4C)c3C[C@H]2CN1C(=O)c1ccccc1
→ 2.9&-7.4	1	·	1	1.2%	25%&17%	4%
[42] CC(CCc1ccccc1)NC(=O)c1ccccc1Cl (configuration not stated)
→ 0.4	-1	1%	-11	·	18%	0%
[43] COc1ccccc1-c1cc(=O)c2c(O)ccc([N+](=O)[O-])c2o1
→ -0.1	-4	-26%	0	0.4%	4%	-7%
[44] COc1ccc(S(=O)(=O)N2CCCC2CNC(=O)C(=O)NCc2ccccn2)cc1 (configuration not stated)
→ ·	-25	-63%[inhibitor]	6	-3.9%	·	8%
[45] COc1ccccc1NC(=S)N(Cc1cccnc1)Cc1ccco1
→ -1.0	0	0%[15.4 µM]	?	·	5%	-7%
[46] Cc1cc(C(=O)NNS(=O)(=O)c2ccccc2C(F)(F)F)nn1C(C)(C)C
→ -7.8	1	4%[15.4 µM]	12	·	7%	-1%
[47] CCCCOC(=O)c1nc(Cl)c(Cl)c(N)c1Cl
→ 7.4	6	?	-4	1.3%	8%	-16%
[48] CC1CCN(S(=O)(=O)c2ccc(C(=O)Nc3nnc(C4=COCCO4)o3)cc2)CC1
→ ·	-14	-22%	18	0.3%	-6%	-20%
[49] CCN(CC)c1ccc2cc(S(=O)(=O)c3ccc(Cl)cc3)c(=O)oc2c1
→ ?	86	5%	-21	-3.9%	-6%	-11%
[50] Cn1c(N)c(C(=O)COC(=O)c2cccc(S(=O)(=O)N3CCCCC3)c2)c(=O)n(C)c1=O
→ 0.0	-14	0%	7	-2.5%	-3%	-1%
[51] CC(OC(=O)CC1CCCCC1)C(=O)Nc1ccc(F)cc1 (configuration not stated)
→ ·	6	4%[15.4 µM]	-15	·	·	5%
[52] O=C(c1cccnc1)N1C2CCC1CC(O)(c1ccc(F)cc1)C2 (configuration not stated)
→ 5.7	9	-46%[inhibitor]	9	0.5%	12%	8%
[53] Cn1cccc1C1C(C#N)=C(N)OC2=C1C(=O)CCC2 (configuration not stated)
→ ?	-4	-1%	23	·	40µM*	-3%
[54] Cc1ccc(C)c(NC(=O)Cn2c([N+](=O)[O-])cnc2C)c1
→ 1.8	7	29%	8	0.1%	4%	6%
[55] Brc1ccc(-c2nn3c(-c4ccco4)nnc3s2)o1
→ 3.9	?	?	-7	-2.0%	20µM*	4%
[56] COc1ccc(S(=O)(=O)NCCOc2ccccc2)cc1-n1cnnn1
→ -5.6	20	-18%[15.4 µM]	-14	·	0%	5%
[57] CC(C)=CC(=O)Nc1ccc(OCc2ccccc2)cc1
→ -1.2	7	-6%[15.4 µM]	9	·	12%	-6%
[58] C=CCOC(=O)CCC(=O)Nc1cccc2ccccc12
→ 1.1	0	0%	22	?	14%	-3%
[59] COc1ccc(/C=N/NC(=O)c2ccccc2OCc2ccccc2)c(OC)c1
→ 1.7	-8	-21%[15.4 µM]	-2	·	-13%	?
[60] O=C(NCCN1CCOCC1)c1cc(-c2ccco2)on1
→ 0.4	-13	6%	-2	-18%	11%	10%
[61] CCOc1ccc(C2C(C(=O)OC)=CN(C(C)c3ccccc3)C=C2C(=O)OC)cc1 (configuration not stated)
→ 7.5	·	16%	10	4.1%	14%	2%
[62] C=CCn1c(C)cc(C(=O)CSc2nnc(C3CC3)n2C2CC2)c1C
→ ·	-4	-56%[inhibitor]	-12	-0.9%	·	7%
